eIF4H inh – human eIF4H binding inhibitors, primary screen, translation initiation inhibitor project, biochemical, uHTS, fluorescence polarization; Eukaryotic translation initiation factor 4H (Homo sapiens), Q15056; AID 2012, 2009; 0.94% of 290,000 active; inhibition, % at 35 µM; eIF4H fluorescence polarization binding assay;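 active means 50% or more with normal probe brightness, or confirmed in later tests; inconclusive means above 50% with abnormal brightness, or retests that disagree; inactive means below 50% or failed in later tests; about a fifth of its hits are not listed in these tables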;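 further: calls also rest on retests at 20 µM and on dose response follow-up; 0% = protein and probe with vehicle and 100% = probe without protein; strong numbers were not always called active; many hits fall short of the cut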
UUG fidelity – modulators of yeast start codon fidelity, primary screen, whole organism, S. cerevisiae, single point, plate reader; S. cerevisiae UUG-firefly luciferase reporter, luminescence/redox ratio; activity score, % at 18.7 µM; 0.13% of 350,000 active; AID 602363, 2012;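 active means replicate mean at a twofold rise or more, about +100% in these data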;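 further: firefly luciferase made from a UUG start codon reports start codon fidelity; reporter light over untreated wells divided by growth signal over untreated wells; some hits fall short of that in this replicate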
MT1-MMP act inh – blockers of MT1-MMP proenzyme processing, primary screen, HT1080 RFP-PRO-GFP cells, GFP/RFP fluorescence | 0.061% of 360,000 active | AID 651647, 2012 | Matrix metalloproteinase-14 (Homo sapiens), P50281 | GFP/RFP ratio fluorescence, overnight; percent of plate control window, DMSO zero | GFP/RFP ratio change, % at 20 µM;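 active means GFP/RFP ratio change of at least 30% with cell ATP level not reduced by more than half and red fluorescence within 50% of control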; further: strong numbers were not always called active
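Assay system: HT1080 cells carrying an RFP-PRO-GFP reporter | Dosing: Single dose of 20 µM compound, 1% DMSO final | Incubation: Cells overnight before dosing, compound overnight, 37 °C, 5% CO2 | Evaluation: GFP/RFP fluorescence ratio | Control set: DMSO and RFP-L50D-GFP cell wells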
Rce1 inh – yeast Rce1p protease inhibitors, primary screen, biochemical, fluorescence, cell-free homogeneous; yeast membranes, quenched prenylated peptide cleavage fluorescence; 0.27% of 290,000 active; calls only; CAAX prenyl protease 2 (Saccharomyces cerevisiae (strain ATCC 204508 / S288c)), Q03530; AID 2563, 2010;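 active means fall in fluorescence gain of 50% or more versus controls, with final raw signal at or below 3038400; inconclusive means same 50% fall but final raw signal above 3038400; inactive means fall in fluorescence gain under 50%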;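 further: plate controls were neutral control wells for no effect and wells lacking membranes for full effect; tested at 10 µM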
Target sequence (Q03530 whole entry, looked up): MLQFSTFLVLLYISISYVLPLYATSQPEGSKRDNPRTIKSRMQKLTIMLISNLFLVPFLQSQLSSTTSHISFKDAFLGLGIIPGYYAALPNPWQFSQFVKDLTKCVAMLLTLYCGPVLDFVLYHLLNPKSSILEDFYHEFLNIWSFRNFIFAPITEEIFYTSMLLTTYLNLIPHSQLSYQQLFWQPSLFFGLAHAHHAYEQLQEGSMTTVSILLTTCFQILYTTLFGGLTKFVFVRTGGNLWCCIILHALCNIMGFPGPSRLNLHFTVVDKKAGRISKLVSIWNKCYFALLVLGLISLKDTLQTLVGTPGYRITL
HIV Env fusion – inhibitors of HIV-1 Env-driven cell-cell fusion, primary screen, HeLa-JRFL effector, CEM21 target cells, luciferase. inhibition, % at 12.3 µM. 1.1% of 360,000 active;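 active means mean replicate inhibition score of at least 50 and every replicate individually at or above 50; inconclusive means only one of the two criteria met; inactive means mean below 50 and not all replicates reaching 50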;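 further: 0% = plate neutral controls and 100% = maraviroc near 300 nM; one replicate is shown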
PABP polyA inh – PABP poly(A) RNA binding inhibitors, primary screen, biochemical, fluorescence polarization, uHTS. Polyadenylate-binding protein 1 (Homo sapiens), P11940. inhibition, % at 35 µM. 1% of 290,000 active;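 active means 50% or more with normal probe brightness, or confirmed in later tests; inconclusive means above 50% with abnormal brightness, or retests that disagree; inactive means below 50% or failed in later tests; about a fifth of its hits are not listed in these tables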;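 further: calls also rest on retests at 20 µM and on dose response follow-up; controls were probe without protein and protein plus probe with vehicle; some compounds called inactive have numbers as strong as hits; many hits fall short of the cut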
CSC inhib – cancer stem cell viability inhibitors, primary screen, luminescence. cancer stem cell-like cells viability. inhibition, % at 7.5 µM. 1.1% of 300,000 active. AID 2717, 2010;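 active means mean at 75% or more and at least half the replicates too; inconclusive means mean and replicates disagree; tested in HMLE shEcad cells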;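 further: 0% = median of negative and 100% = median of positive control wells; the first replicate is given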
eIF4H inh retest – also measured in eIF4H inh; calls as there; inhibition, %; compound at 20 µM; confirmation average;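 mean of two retest wells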
PABP polyA inh retest – further read-out of PABP polyA inh, marked with its call; inhibition, %; compound at 20 µM; confirmation repeats;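 mean of two retest wells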
MT1-MMP act inh RFP – second read-out of MT1-MMP act inh, no call of its own (marks repeat the call); RFP signal change, %; measured here: RFP expression control read;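 0 = vehicle wells; hits needed this value within 50% of zero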
Starred values were filed as active, the others as inactive; i = inactive; ? = inconclusive; / = not tested or not shown. This is a subset, so the mix of outcomes need not match the whole.

SMILES	eIF4H inh	UUG fidelity	MT1-MMP act inh	MT1-MMP act inh RFP	Rce1 inh	HIV Env fusion	PABP polyA inh	CSC inhib	others
CCOc1cc(CNC(C)(C)C)ccc1OCC(=O)Nc1cccc(C(F)(F)F)c1	-5	/	1	-2	i	-10	-4	8
CC1(C)OC(C(O)(c2ccccc2)c2ccccc2)[C@@H](C(O)(c2ccccc2)c2ccccc2)O1 (stereo partly drawn)	-3	-11	-25	-23	i	-39	-1	108*
O=C(CSc1nncn1-c1ccccc1)NCc1cccs1	-5	-21	2	8	i	/	-5	-9
COc1ccccc1-n1cc(-c2ccc(Br)cc2)[nH]c1=S	4	-21	-2	-3	i	-5	9	14
CCn1cc(SCC(N)=O)c2ccccc21	-8	-19	2	5	i	-91	11	-2
CCOC(=O)CSc1nc2ccc(S(=O)(=O)N3CCOCC3)cc2[nH]1	-2	7	0	-1	i	-21	7	-12
O=C(NCCCn1ccnc1)c1ccc2nccnc2c1	2	-15	-5	1	i	8	7	-4
CCn1c(=O)n(CC)c2cc(N3CCCC3)c(NC(=O)c3cccc(OC)c3)cc21	-12	-6	8	2	i	14	5	-13
CC(C)(C)OC(=O)N[C@@H](Cc1ccccc1)C(=O)N[C@@H](CO)[C@H](O)[C@@H]1C[C@@H]1C(=O)NC1CCCCC1	/	3	4	9	/	2	/	-14
O=C(O)CSc1nnc(-c2ccccc2)o1	4	-3	6	6	i	/	24	-4
CS(=O)(=O)N1CCc2cc(C(=O)N3CCN(c4cccc(Cl)c4)CC3)ccc21	-8	3	1	-5	i	15	0	-16
O=C(c1[nH]c(C(F)(F)F)nc1-c1ccccc1)N1CCCCC1	/	-5	-1	3	/	22	/	/
COc1ccc(C2C(Oc3ccccc3)C(=O)N2c2ccc(C)c(C)c2)cc1OC (stereo not drawn)	/	-14	0	-7	i	/	/	11
COc1ccccc1/C=C/C(=O)N1CCOCC1	-7	-10	-1	1	i	16	-8	4
CCN(CC)c1ccc2cc(-c3nc(-c4ccc(OC)cc4)cs3)c(=O)oc2c1	?	/	/	/	/	-26	-9	/
O=C(COC(=O)CC1SC(N2CCCC2)=NC1=O)Nc1c(F)c(F)c(F)c(F)c1F (stereo not drawn)	/	-9	1	3	/	11	/	/
CCCCn1c(N)c(N(CCC(C)C)C(=O)c2sc3nc4n(c(=O)c3c2C)CCC4)c(=O)[nH]c1=O	-5	-9	0	2	i	-272	4	-44
CN1CC2CCCC3(C1)C(=O)NC1(CCCCC1)N=C23 (stereo not drawn)	-8	-11	-20	-2	i	/	3	-1
COc1ccc(NS(=O)(=O)c2cc3c(cc2C)N(C)CCO3)cc1	-4	10	4	-3	i	7	3	-3
COc1ccc(NC(=O)C2CCCNC2)cc1OCC(C)C (stereo not drawn)	2	-6	4	9	i	/	-3	-3
COc1ccc(C(=O)Nc2nc3ccccc3s2)cc1	-1	-33	2	-17	i	-273	3	11
Cc1ccc(-n2c(SCC(=O)Nc3cccc(S(N)(=O)=O)c3)nc3ccccc32)cc1	11	/	-8	-8	i	5	-10	21
Cc1nccn1CC(=O)N/N=C/c1ccccc1O	6	/	/	/	i	5	3	9
COc1ccc(-c2nnc(SCC(=O)N3CCCc4ccccc43)o2)cc1OC	-1	-12	8	1	i	/	-12	-2

By substructure, the compounds so far with a halogen
SMILES	eIF4H inh	UUG fidelity	MT1-MMP act inh	MT1-MMP act inh RFP	Rce1 inh	HIV Env fusion	PABP polyA inh	CSC inhib	others
CCOc1cc(CNC(C)(C)C)ccc1OCC(=O)Nc1cccc(C(F)(F)F)c1	-5	/	1	-2	i	-10	-4	8
COc1ccccc1-n1cc(-c2ccc(Br)cc2)[nH]c1=S	4	-21	-2	-3	i	-5	9	14
CS(=O)(=O)N1CCc2cc(C(=O)N3CCN(c4cccc(Cl)c4)CC3)ccc21	-8	3	1	-5	i	15	0	-16
O=C(c1[nH]c(C(F)(F)F)nc1-c1ccccc1)N1CCCCC1	/	-5	-1	3	/	22	/	/
O=C(COC(=O)CC1SC(N2CCCC2)=NC1=O)Nc1c(F)c(F)c(F)c(F)c1F (stereo not drawn)	/	-9	1	3	/	11	/	/

Other compounds.
SMILES	eIF4H inh	UUG fidelity	MT1-MMP act inh	MT1-MMP act inh RFP	Rce1 inh	HIV Env fusion	PABP polyA inh	CSC inhib	others
C/C(=N\Nc1ccc(Cl)c(Cl)c1)c1ccc(-n2ccnc2)cc1	-4	/	11	5	i	5	0	62
CC1=C(NCCc2ccccc2)CCC1=O	2	-5	3	2	i	/	-2	2
CCn1c(=O)c(C(=O)CN2CC(C)OC(C)C2)c(N)n(Cc2ccccc2)c1=O (stereo not drawn)	-6	-9	-7	-4	i	-13	-10	-2
CC1=C(C/C=C(\C)CCCC(C)CCCC(C)CCCC(C)C)C(=O)c2ccccc2C1=O (stereo not drawn)	/	-11	-2	5	/	-1	/	-1
CCCCN(CCCC)CCNC(=O)c1cn(CC)c2ccc(S(=O)(=O)N3CCCC3)cc2c1=O	-1	4	-7	2	i	24	-10	-12
CN(c1ccccc1)C(c1ccc(F)cc1)c1nnnn1CC1CCCO1 (stereo not drawn)	0	-7	-8	-3	i	-226	9	8
CCCCn1c(N)c(N(CC)C(=O)c2cc(CC)c(C)s2)c(=O)[nH]c1=O	/	/	6	6	i	/	/	-9
O=C(NCCc1c[nH]c2ccccc12)c1ccc(S(=O)(=O)NCc2ccco2)cc1	4	-11	-1	-4	i	10	24	24
Cc1ccc(-n2c(SCC(=O)Nc3ccc4c(c3)OCO4)nnc2-c2ccccn2)cc1	-2	-9	8	1	i	11	-14	2
Cc1ccc(OCC(=O)NNC(=O)C2CCCO2)c(C)c1 (stereo not drawn)	100	-16	-2	2	i	10	-9	-7	eIF4H inh retest=-1;PABP polyA inh retest=-3
c1ccc(-c2nc3ccccc3o2)nc1	-10	3	0	4	i	/	-14	-2
COc1cc(/C=C/C(=O)O)cc(S(=O)(=O)N2CCc3ccccc3C2)c1OC	4	/	-1	1	i	15	5	-1

Reprinted from the part before: two compounds, followed by the next part.
SMILES	eIF4H inh	UUG fidelity	MT1-MMP act inh	MT1-MMP act inh RFP	Rce1 inh	HIV Env fusion	PABP polyA inh	CSC inhib	others
c1ccc(-c2nc3ccccc3o2)nc1	-10	3	0	4	i	/	-14	-2
COc1cc(/C=C/C(=O)O)cc(S(=O)(=O)N2CCc3ccccc3C2)c1OC	4	/	-1	1	i	15	5	-1
CC(Oc1ccc2c3c(c(=O)oc2c1)CCC3)C(=O)N[C@@H](Cc1ccccc1)C(=O)O (stereo partly drawn)	1	-21	-6	-2	/	/	8	-9
COc1ccc(COc2cc(-c3cccc(OC)c3)nc3ccc(NC(=O)c4ccc(Cl)cc4)cc23)cc1	-3	-6	6	-4	i	-67	4	41
Cc1cccc(NC(=O)Cn2c(=O)n(CCc3c[nH]c4ccccc34)c(=O)c3cccnc32)c1	2	/	/	/	i	-49	0	-8
CC(NC(=S)NC1CCCCC1)C(c1cccs1)N1CCOCC1 (stereo not drawn)	-2	-34	2	2	i	-17	-4	-3
CC1(C)Cc2ccccc2-c2nnc(-c3ccccn3)n21	1	/	5	0	i	/	5	-24
N#CCCN(Cc1cccnc1)C(=S)Nc1ccccc1Cl	-12	/	4	2	/	-17	6	/
O=C(CC(=O)Nc1ccc(Cl)cc1Cl)Nc1ccc(Cl)cc1Cl	-8	-6	-1	3	i	-14	-1	-8
C/C(=C\c1ccccc1F)C1Nc2cccc3cccc(c23)N1	/	4	6	9	/	11	/	-8
Cc1cccc(N(C(=O)CNC(=O)c2ccco2)C(C(=O)NC2CCCC2)c2cccnc2)c1C (stereo not drawn)	-1	2	0	2	i	-3	-3	/
Cc1[nH]c2ccccc2c1C(=O)NS(=O)(=O)Nc1ccc(F)cc1	2	/	-3	-3	i	-20	-7	-5
CN(C)S(=O)(=O)N1CCC(Oc2ccc(C(=O)N3C[C@@H]4CCC[C@H]3C4)cc2)CC1	10	-1	0	-15	i	7	3	5
CN(C)c1nc(N)nc(CSc2nc3cc(Cl)ccc3o2)n1	3	-21	3	-6	i	-20	16	-21
COc1cc(/C=N/N2CCCCC2)cc([N+](=O)[O-])c1O	3	-16	3	0	i	0	12	-14
CN(C(=O)c1ccc(Br)o1)C1(C)CCS(=O)(=O)C1 (stereo not drawn)	8	-11	-1	-2	i	12	12	-3
Cn1c(SCC(=O)NCc2cccs2)nnc1-c1ccncc1	-8	0	-1	2	i	-14	-13	-19
O=C(CSc1nc2ccccc2c(=O)n1CC1CCCO1)Nc1ccccc1 (stereo not drawn)	-7	-12	-2	0	i	-1	-1	-9
O=C(COC(=O)c1cc(S(=O)(=O)N2CCCC2)ccc1O)Nc1ccc(F)cc1F	/	-7	1	3	/	/	/	-6
CCCn1c(CN2CCN(c3cccc(Cl)c3)CC2)nc2c1c(=O)n(C)c(=O)n2C	2	-2	-4	-27	i	44	2	-1
CCOC(=O)N1CCN(Cc2nc3cc(NC(=O)c4cccs4)ccc3n2CC)CC1	-12	-12	-2	-4	i	-3	-8	9
COC(=O)C(C)n1cnc2c(nnn2-c2ccc(C)cc2)c1=O (stereo not drawn)	-7	-24	11	9	i	-3	-2	-7
COc1ccc(Nc2nc(N3CCOCC3)nc(N3CCOCC3)n2)cc1	0	-15	2	-3	i	7	6	-3
O=c1c2ccccc2nc(SCc2ccncc2)n1CC1CCCO1 (stereo not drawn)	2	-12	-4	-5	/	11	5	1
COc1ccccc1Nc1ccc(C(=O)NC2CCCCC2)cn1	76	3	1	3	i	/	-7	11	eIF4H inh retest=0;PABP polyA inh retest=3
CC1(C)CC(=O)C(CC2=C(N)CC(C)(C)CC2=O)=C(N)C1	6	-10	3	7	i	-5	-7	2

Compound activity deposited in PubChem by several laboratories.
